Compound activity (PubChem)
NPYLR7 agonist – activates Aedes aegypti NPYLR7 receptor | HEK293T NPYLR7/Galpha15, GCaMP6s calcium fluorescence | activation, % at 10 µM | actives 0.15% (n = 270,000) | AID 1259423; in the data active means activation above about 40%;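 further: 0% = vehicle and 100% = reference agonist at the receptor; some compounds past the cut are filed as inactive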
NPYLR7 agonist max-min – also measured in NPYLR7 agonist; calls as there; activation, %; measured here: Max-Min RFU normalised activation; some inactives read as strong as hits;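 span of the calcium signal over five minutes; 0% = vehicle and 100% = native peptide agonist; compound fluorescence can raise it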
* = called active by the depositor; & = joins results of further samples.

compound | NPYLR7 agonist | NPYLR7 agonist max-min
CC(=NNc1ncc(Cl)cc1Cl)c1cc2ccccc2o1 | 0 | -5
Nc1ccccc1C1SCC(=O)N1c1ccc(F)cc1 (stereo not given) | -5 | -3
Cc1ccc(CC(=O)Nc2ccc(CN3CCCC(C)C3)cc2)cn1 (stereo not given) | 2 | 1
CCOc1ccc2ncc(C#N)c(NCc3ccc(OC)c(OC)c3)c2c1 | -1 | -3
CCCC(=O)N1CCCC1C(=O)Nc1ccc(-c2ccccc2)nn1 (stereo not given) | 4 | 0
O=C1c2ccc(-c3nc4ccccc4c(=O)o3)cc2C(=O)N1C1CCCCC1 | 1 | 7
Cc1cc(C)n(-c2ccc(Cl)c(C(=O)Nc3ccc4c(c3)CCC4)n2)n1 | -5 | -6
CCC(NC(=O)CNC(=O)c1ccc(F)cc1)c1ccccc1O (stereo not given) | 6 | 2
CC1=CC(C)C2C(=O)N(Cc3ccco3)C(=O)C2C1 (stereo not given) | 4 | -1
O=C1N(CCCc2ccccc2)CCCC1(O)CNC1CCC(O)CC1 (stereo not given) | 5 | 5
Cc1noc(C)c1C1CCCN1C(=O)c1nc(C(C)C)cs1 (stereo not given) | 8 | 6
CC1Cc2ccccc2N1C(=O)Cc1cc(-c2ccco2)on1 (stereo not given) | 0 | 3
CCCOC(=O)C1=C(C)NC2=C(C(=O)CC(c3ccc(Cl)cc3)C2)C1c1ccc(Cl)c(Cl)c1 (stereo not given) | 14 | 11
Cn1cnnc1CNc1ccnc(-c2ccccc2)n1 | 0 | -1
CCc1nc(N(CCC(=O)NC2CC2)Cc2ccccc2)c2ccccc2n1 | -2 | 9
Cn1c(=O)[nH]c(=O)c2c1nc(N1CCNCC1)n2Cc1ccc(Cl)cc1 | 0 | 11
CCc1ccc(CN(C)Cc2nc(-c3cccc(Cl)c3)no2)cc1 | 8 | -2
CSc1nnc(C2CCCN2C(=O)OC(C)(C)C)o1 (stereo not given) | 0 | -2
CC(C)(C)CC(C)(C)Nc1c(-c2ccc(Cl)c(Cl)c2)nc2ccccn12 | -4&3 | -2&13
Cc1cccnc1NC(=O)Cn1nc(C)c([N+](=O)[O-])c1C | -12 | -15
CS(=O)(=O)c1ccc(C(=O)N2CCCC(c3ccn[nH]3)C2)cc1 (stereo not given) | 0 | 2
Cc1ccc(-n2ncc3c(NCCO)nc(N4CCN(c5ccccc5F)CC4)nc32)cc1 | 1 | -2
c1csc(CCCc2nn3c(C4CC4)nnc3s2)c1 | -8 | -12
CC1(C)Cc2cccc(OCCC(=O)Nc3cccnc3)c2O1 | 6 | 2
COc1ccc(-c2nc(CN3CCN(c4cccc(C)n4)CC3)c(C)o2)c2ccccc12 | -11 | -14
COCCNCCOc1ccccc1F | 6 | 3
CCS(=O)(=O)Oc1ccc(CN(C(C)C)S(=O)(=O)c2ccc(Br)cc2)cc1 | 20 | 23
CC(C)(C)CC(=O)N1CCN(CCCOC(c2ccc(Cl)cc2)c2ccc(Cl)cc2)CC1 | 3 | -3
O=C(c1ccc(CSCc2ccccc2Cl)cc1)N1C2CCC1CC(Oc1ccc3c(c1)OCO3)C2 (stereo not given) | 20 | 7
CN(Cc1ccno1)C(=O)c1csc(Cc2ccccc2)n1 | 4 | 14
CSc1nc(NCc2ccco2)c(C#N)c(-c2ccc(C)cc2)n1 | 12 | 10
COc1ccc(-c2nc(C)c(-c3ccc(SCC(=O)N4CCCCC4)nn3)s2)cc1 | 7 | 4
CC(C)[C@H](NC(=O)c1ccccc1C(F)(F)F)c1nnc2c(C(F)(F)F)cccn12 | 1 | 1
OCCSc1ncnc2sc3c(c12)CCCC3 | 2 | 2
CCOC(=NC(C)C(C)C)NC(=O)c1ccc(F)cc1 (stereo not given) | -6 | 0
CCC1CN(C(=O)c2ccc3n[nH]nc3c2)CCC(=O)N1Cc1ccccc1 (stereo not given) | 8 | 5
C=CCN=c1scc(-c2ccccc2F)n1N=C1CCCC1 | 5 | 8
COc1ccc(/C=C(/Cl)c2nc3ccccc3[nH]c2=O)cc1 | 1 | -1
c1ccc2c(c1)CCN(c1ncnc3c1oc1ccccc13)C2 | 12 | 13
Cc1onc(-c2ccccc2Cl)c1C(=O)NC1CCCC1 | 9 | 11
S=c1[nH]nc(-c2cccs2)n1C1CC1 | 7 | 11
COc1ccc(-c2nc(CN3C(=O)c4ccccc4S3(=O)=O)co2)cc1 | 1 | 0
O=C1NC[C@H]2CCN(C(=O)OCc3ccccc3)CC[C@H]12 | 24 | 32
Cc1ccc(C(=O)N2CCCC(CNC(N)=O)C2)c(=O)[nH]1 (stereo not given) | 17 | 15
COc1ccc(C2c3cccn3CCCN2Cc2ccncc2)cc1O (stereo not given) | 7 | 26
CCOC(=O)c1nc2ccccc2nc1N1CCCN(S(=O)(=O)c2ccccc2Cl)CC1 | 11 | 4
CCCCNC(=O)c1ccc2nc(C)c(N(C)CCCC)n2c1 | -11 | -13
COc1cccc(CSc2nnc(C(C)NS(=O)(=O)c3c(C)cc(C)cc3C)n2-c2ccc(C)cc2)c1 (stereo not given) | 22 | 25
CN(C(=O)COc1ccc(C(C)(C)C)cc1)c1ccc(-c2onc3c2CCc2ccccc2-3)cc1 | 4 | 6
COc1ccc(C(C)=O)cc1Cn1c(C)c(C(=O)NCc2ccccn2)sc1=O | 7 | 3
CC(C)(C)OC(=O)NC1CCN(C(=O)CCC(=O)N2CCc3c([nH]c4ccccc34)C2)C1 (stereo not given) | -11 | -14
C=c1ccc2cc(=C3N=C(C(C)C)ON3)c(=O)[nH]c2c1 | 5 | 0
Cc1cccc(C(C)C)c1NS(=O)(=O)c1c(Cl)cccc1Cl | 0 | -1
CC(C)(C)c1cc(N)n(CC(=O)O)n1 | 2 | 391
C=CCNC(=S)Nc1cc(OC)cc(OC)c1 | 6 | 5
Cc1ccn(-c2ccc(NC3CCOC4(CCCC4)C3)nn2)n1 (stereo not given) | 5 | 3
Cc1ccc2nc(CN(C)Cc3c(C)nn(C)c3Cl)[nH]c2c1 | 10 | 8
CN(C)CC1(O)CCCN(C(=O)CCn2ccccc2=O)C1 (stereo not given) | 1 | -5
O=S(=O)(Nc1ccc(Br)cc1)c1ccc(Cl)s1 | 0 | -1
O=C(CN1CCCCCC1)NCC1(CO)CCCC1 | 20 | 7

Later entries:
compound | NPYLR7 agonist | NPYLR7 agonist max-min
CCOC(=O)[C@@H]1CN(C(=O)NC2CCCC2)[C@H]2c3ccc(OC)cc3O[C@@H]12 | 3 | 6
CC(C)(C(=O)NCc1cccs1)c1ccccc1 | 7 | 4
COC1CN(Cc2ccc(-c3ccccc3)cc2)CC(=O)N(Cc2cccnc2)C1 (stereo not given) | 6 | -7
O=C(c1cn[nH]n1)N1CCOc2ccc(CO)cc2C1 | 3 | 3
CC(C)c1ccc(-c2nnn(CC(=O)NC(C)(C)C)n2)cc1 | -6 | -7
O=C(c1ccc(-n2cccn2)cc1)N1CCCC(CO)(CCc2ccccc2)C1 (stereo not given) | 3 | -3
C=CCn1c(=O)c(C(=O)Nc2nccs2)c(O)c2ccccc21 | -6 | -8
Cc1ccc(Br)cc1C(=O)OCCn1cncn1 | -5 | -6
Oc1c(I)cc(Cl)c2cccnc12 | 4&3&-3 | 6&-2&-5
Cn1c(=S)sc2c(N3CCCCCC3)ncnc21 | -1 | -3
CCN1CCN(Cc2nc3c(c(=O)n(C)c(=O)n3C)n2Cc2ccc(Cl)cc2Cl)CC1 | 3 | 0
CC(=O)Oc1ccccc1Cn1c(C)c(C(=O)NCc2cccs2)sc1=O | 9 | 2
CN1CC(C(=O)Nc2cc(F)ccc2OCC2CCCO2)CC1=O (stereo not given) | 5 | 3
Cc1ccc(CN(C(=O)c2cc(=O)[nH][nH]2)C2CC2)s1 | 3 | 1
O=[N+]([O-])c1ccc(NN=C2CCCCC2c2ccccn2)c([N+](=O)[O-])c1 (stereo not given) | 17 | 33
CC#CC(=O)NC1CC(=O)N(Cc2cccc(F)c2)C1 (stereo not given) | 22 | 8
COCCn1c(C)cc(O)c(C(c2ccccc2)N2CCN(c3ccccc3)CC2)c1=O (stereo not given) | 3 | -2
CCC(=O)Nc1cccc(NC(=O)c2ccc(C)cc2)c1 | -1 | -1
Cc1cn2c3c(=O)n(CC(C)C)c(=O)n(C)c3nc2n1-c1ccc(F)cc1 | 17 | 8
Cc1ccc2[nH]c(C(=O)O)c(CN3CC[C@@H](c4ccc(F)cc4)[C@H](O)C3)c2c1 | 5 | 4
Cc1ccc(OCC(=O)N2CCC(n3cnc4cc(C(F)(F)F)ccc43)CC2)cc1 | 1 | 0
O=c1c(Cl)c(N2CCOCC2)cnn1C12CC3CC(CC(C3)C1)C2 | 10 | 8
Cn1c(Cl)cnc1CN(c1ccccc1F)C1CCCC1 | 5 | 4
Cc1ccc(-c2nn(-c3cc([N+](=O)[O-])ccc3N3CCCC3)c(=O)c3ccccc23)cc1C | -8 | -11
COCCC(C)NC(=O)Nc1ccc(OC)nc1Br (stereo not given) | 7 | 7
c1ccc(-c2nn(-c3ccccc3)[n+](-c3nn[nH]n3)n2)cc1 | -10 | -17
COC(=O)[C@@H]1C[C@@H](N(C)C)CN1C/C(C)=C/c1cc(Cl)ccc1O | 6 | 1
CC(=O)c1ccc(NC(=O)CCNS(=O)(=O)c2ccc3c(c2)CCCC3)cc1 | 6 | -1
COc1ccc(C(=O)N2CCCN(Cc3cc(=O)c(OCc4ccc(SC)cc4)co3)CC2)cc1OC | 38 | 25
CCn1cnnc1CCNC(=O)c1cn(Cc2ccccc2F)nn1 | 5 | 3
Cc1ccc(Cl)c(C(=O)NC(C(=O)O)c2c(C)n[nH]c2C)c1 (stereo not given) | 12 | 4
CC(c1ccon1)N(C)C(=O)CCNC(=O)c1ccccc1F (stereo not given) | 13 | 7
Cc1ccc(C)c(NC(=O)COc2cccc3c2CCN(Cc2ccccc2F)C3=O)c1 | 8 | 7
Cc1cc(Cl)c2oc(C(=O)N(C)Cc3n[nH]c4c3CCCCC4)c(C)c2c1 | 15 | 2
CC(NS(=O)(=O)N1CCc2ccccc2C1)c1ccc(S(C)(=O)=O)cc1 (stereo not given) | 2 | 5
COc1ccc(C(=O)NCc2ccc(-c3ncc(-c4ccc(OC)cc4)[nH]3)cc2)cc1 | -1 | -5
C=CCc1cccc2cc(C(=O)NCCN(CC)CC)c(=O)oc12 | 14 | 14
COc1ccc(OC)c(C(=O)c2ccc(C(=O)N3CCCC(Nc4ccccc4)C3)cc2)c1 (stereo not given) | 14&-4 | 3&-5
Cc1cc(C)n(-c2nc3c(c(=O)n(C)c(=O)n3C)n2C)n1 | 8 | 1
COc1ccc(OCc2nc(CSCc3ccccc3Cl)cs2)cc1 | 18 | 27
COC(=O)Cc1cc(=O)[nH]c(N=C(N)Nc2ccc(Oc3ccccc3)cc2)n1 | 4 | 1
CN(Cc1ncc(-c2ccccc2)o1)C1CCCc2ccccc21 (stereo not given) | -3 | -5
O=S(=O)(NCc1ccccc1)NC1CCc2[nH]ncc2C1 (stereo not given) | 4 | 2
COc1cc(C(=O)N(C)Cc2ccc3c(c2)OCO3)cc(Cl)c1O | -13 | -16
CCOc1cc(C=C2C(=O)NC(=S)NC2=O)ccc1OCCOCCOc1ccc(C)cc1 | -9 | -13
O=C(COc1cccc(Cl)c1)N1CCN(c2nccc(-c3ccc(Oc4ccccc4)cc3)n2)CC1 | 11 | 8
O=C(CCC(=O)c1ccc(CCCC2CC2)cc1)NCC1COc2ccccc2O1 (stereo not given) | -5 | -13
O=C(Nc1nc2ccc3ccccc3c2s1)c1ccc([N+](=O)[O-])cc1 | 5 | 5
CC(=O)Nc1ccc(-c2nc(N3CCCCC3)sc2C)cc1 | 3 | 1
CC1CN(C(=O)Cn2cnc3c(nnn3-c3ccc(OC(F)(F)F)cc3)c2=O)CC(C)O1 (stereo not given) | -5 | -8
Cc1cc(C(=O)N(Cc2ccco2)c2nc3c(C)c(Cl)ccc3s2)on1 | 0 | 8
Cn1cnc2c(-c3cccc(F)c3)csc2c1=O | -3 | -7
c1cc2c3c(c1)c1c(n3CCNC2)CCCC1 | 9 | -6
CC(C)CC(N)c1csc(Nc2ncccn2)n1 (stereo not given) | 0 | 1
O=C(CSc1cccc[n+]1[O-])NC(=O)NC1CCS(=O)(=O)C1 (stereo not given) | -1 | 0
COc1ccc(C2=NN(C(=O)c3ccccc3F)C(c3ccc4nccnc4c3)C2)cc1OC (stereo not given) | 0 | 14
CCOC(=O)C1=C(C)N=c2s/c(=C\c3c(OCC)ccc4ccccc34)c(=O)n2C1c1ccccc1 (stereo not given) | 5 | -3

The list is partial, so the mix of outcomes need not match the whole.
